FEN1 inhibitor = qHTS Assay for the Inhibitors of Human Flap endonuclease 1 (FEN1) | P39748 | Recombinant FEN1 flap cleavage, fluorescence, 15 min | Potency, µM (titrated, usually from 114 µM), without a hit: at the highest dose activity change, negative = inhibition, hits mostly inhibitors | hit rate 0.35% among 390,000; also: nearly all actives have a fitted effect of over 65% in size
Target sequence (P39748 whole entry, looked up): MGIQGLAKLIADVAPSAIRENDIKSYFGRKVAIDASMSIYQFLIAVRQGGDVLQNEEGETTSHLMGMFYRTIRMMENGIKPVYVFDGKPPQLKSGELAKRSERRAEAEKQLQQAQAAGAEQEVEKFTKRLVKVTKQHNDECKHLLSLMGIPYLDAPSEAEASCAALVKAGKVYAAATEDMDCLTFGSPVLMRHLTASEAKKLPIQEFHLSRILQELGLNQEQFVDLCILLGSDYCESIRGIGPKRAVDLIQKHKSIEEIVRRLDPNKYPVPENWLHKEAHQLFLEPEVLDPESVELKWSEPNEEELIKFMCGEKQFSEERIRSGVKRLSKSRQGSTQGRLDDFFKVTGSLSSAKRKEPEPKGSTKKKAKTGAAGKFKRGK
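In this screen, 50 nM flap DNA substrate was added to 10 nM FEN1 pretreated with compound for 15 min at room temperature; cleavage was followed with reads at 0 and 15 min, and Hill fitting gave concentration–response parameters.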
N370S GC = qHTS Assay for Inhibitors and Activators of N370S glucocerebrosidase as a Potential Chaperone Treatment of Gaucher Disease; hit rate 0.092% among 330,000; Lysosomal acid glucosylceramidase (Homo sapiens), P04062; N370S GC spleen homogenate, 4MU-glucoside fluorescence; Potency, µM (highest dose often 59.4 µM), inactives show top-dose activity change, negative = inhibition, actives largely listed as inhibitors; AID 2101, 2009;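 also: 0% = full enzyme activity and -100% = no enzyme basal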
Active calls of the source: *; u = inconclusive; x = not tested or not shown; & = joins results of further samples; [ ] = dose if it differs, or a comment. Calls follow the shape of the dose curve; as a rule, active = well fitted curve in the direction sought with a large enough effect; inconclusive = small, poorly fitted or top-dose-only effect, or another doubt; inactive = no such curve, though single readings can be large; an effect the other way counts as inactive or inconclusive. Unless noted, % is scaled to controls: 0 for no effect and ±100 for the full control effect; potency is read from the fitted curve at half-maximal effect.

SMILES	FEN1 inhibitor	N370S GC
COc1ccccc1-c1nnc(C2CCN(C(=O)c3ccc(Cl)cc3)CC2)o1	-4%	x
COc1ccc(NC(=S)c2ccc3ccccc3n2)cc1	-2%	15%
O=C(Cn1cnc2c(cnn2-c2ccccc2)c1=O)NCc1ccccc1	-10%	-8%[2.35 µM]
CCO[C@H]1OC(C(=O)NCc2ccccc2)=C[C@@H](c2ccc(C(F)(F)F)cc2)[C@@H]1CCCO	-14%	u
COC(=O)[C@@H]1CC[C@H](C)[C@@H](c2ccc(C)cc2)N1C(=O)c1ccc(/C=N/OC[C@@H](O)[C@H]2O[C@@H]3OC(C)(C)O[C@@H]3[C@H]2O)cc1	x	17%
COc1ccc(NC(=O)c2ccc(S(=O)(=O)N(C)C)cc2)cc1OC	-6%	3%
CCOc1ccccc1N(CC(=O)Nc1ccccc1C(=O)N1CCCC1)S(C)(=O)=O	13%	-9%
CN(C)c1cc(-c2ccc(F)cc2)oc(=O)c1Cl	8%	-25%
O=C(NNC(=O)c1ccco1)Nc1ccccc1	7%	-10%
CCc1nc(Nc2ccccc2)c2nnn(Cc3ccccc3)c2n1	-15%	-10%
CC1(C)Cc2c(sc(NC(=O)c3ccco3)c2C(=O)O)CO1	-2%	-1%
Cc1ccc(-n2nnc3ccccc3c2=O)cc1C	-1%	4%
O=C1CC[C@H](O)CCN1CCSc1ccc(Br)cc1	-5%&-5%	x
CC(C)(C)c1ccc(NC(=O)C2CCCN(c3cnccn3)C2)cc1 (centres undefined)	-21%&-1%	u
COc1cc(OC)c(NC(=O)C(C)n2c(=O)cc(-c3ccccc3)c3c(C)nn(C)c32)cc1Cl (centres undefined)	-14%	x
COc1ccc(NC2c3ccccc3C(=O)N2Cc2ccccc2Cl)cc1OC (centres undefined)	-15%	28%
COc1cccc(C2CCCN2Cc2nc(-c3sccc3C)oc2C)c1 (centres undefined)	-18%	-17%
CCOC(=O)c1c(C)[nH]c(C(=O)COC(=O)CCC(=O)c2ccc3c(c2)OCCO3)c1C	-22%	5%[2.35 µM]
CCOc1cc(N2CCOCC2)c(OCC)cc1NC(=O)COC(=O)/C=C/c1ccc(OC(F)F)cc1	1%	0%
CC(C)(C)NC(=O)NC(=O)COC(=O)c1ccc(OC(F)(F)F)cc1	0%	8%
O=C(Nc1ccc(Cl)cc1Cl)c1cc(S(=O)(=O)N2CCc3ccccc32)ccc1F	-5%	x
COc1ccc(N2C(=O)C(CC(=O)Nc3ccccc3)N(Cc3ccccn3)C2=S)cc1 (centres undefined)	15%	6%
CC(=O)N1[C@H](Cc2ccccc2)C=C[C@]1(C)C(=O)NCCc1c[nH]c2ccccc12	-17%	21%
COCC(=O)N/N=C\c1cccc(OC)c1OC/C=C/c1ccccc1	7%	-24%
CCN(CC)CC(O)COc1ccc2c(c1)c(C(C)=O)c(C)n2-c1ccccc1 (centres undefined)	-10%	-9%
Cn1cccc1CC(=O)N/N=C/c1cccc2ccccc12	10%	-1%
O=C(CNc1cc(S(=O)(=O)N2CCOCC2)ccc1NCC1CCCO1)Nc1ccccc1F (centres undefined)	1%	0%
COCCn1c(C)cc(O)c(C(=O)Nc2cccc(Cl)c2)c1=O	21%	-6%
Cc1[nH][nH]c(=O)c1C(c1ccc(-c2ccc(Cl)cc2Cl)o1)c1c(C)[nH][nH]c1=O	x	-11%
CCn1c(C(C)NC(=O)c2cccc(C)c2)nc2ccccc21 (centres undefined)	-17%	-2%
c1csc(-c2nn3c(C4COc5ccccc5O4)nnc3s2)c1 (centres undefined)	-2%	16%
CCOC(=O)c1sc(C)nc1C1CCN(C(=O)OCC)CC1	10%	4%
COc1ccc(/C(C)=N/NS(=O)(=O)c2cc(C)ccc2C)c(OC)c1	-7%	5%
NC(=O)c1nsc(C(=O)N(c2ccccc2F)C(C(=O)NCc2ccc(F)cc2)c2ccc(O)cc2)c1N (centres undefined)	8%	0%
COC(=O)c1sc(S(=O)(=O)N2CCCCC2C)c(C(=O)OC)c1C (centres undefined)	7%	x
O=C(CCCN1C(=O)CSc2ncccc21)N1CCN(c2cccc(C(F)(F)F)c2)CC1	1%	-7%
COC(=O)[C@]1(C)N[C@H](CN(C)C(=O)COc2ccccc2)[C@@H]2C(=O)N(C)C(=O)[C@@H]21	7%	x
Cc1ccc(OCC(=O)OCC(=O)NC2CCCC2)cc1C	-7%	x
CNS(=O)(=O)c1cn(CC(=O)Nc2cccc(C(F)(F)F)c2)cc1S(=O)(=O)NC	11%	x
Cc1cc(C)c(NC(=O)CN2C(=O)NC3(CCc4ccccc43)C2=O)c(Cl)c1 (centres undefined)	-12%	x
CCCCN(CCCC)c1ccc(C(=O)c2ccccc2C(=O)O)c(O)c1	8%	8%
O=C(COc1ncnc2ccccc12)NC1CCCC1	11%	x
COc1cc(C(=O)NCC(=O)NCC(c2ccco2)N2CCCCC2)cc(OC)c1OC (centres undefined)	18%	x
COc1cc(OC)cc(N2CCN(S(=O)(=O)c3ccc(-n4cnnn4)cc3)CC2)c1	-4%&-6%	-1%
COc1ccccc1OCC(=O)NC1CCSc2ccccc21 (centres undefined)	1%	x
COc1ccc(N(C(=O)c2ccco2)C(C(=O)NC2CCCC2)c2cccs2)cc1OC (centres undefined)	10%	12%
C=CCOc1ccc(/C(O)=C2\C(=O)C(=O)N(CCN(C)C)C2c2cccs2)cc1 (centres undefined)	-7%	-7%
O=C1C=C(c2cc3ccccc3o2)C[C@@H](c2ccc(F)cc2)C1	-1%	x
CC(C)CC(=O)Nc1cccc(-c2nc3ccccc3[nH]2)c1	-1%&6%	0%
COc1cc(NC(=O)c2ccccc2Cl)ccc1NC(=O)c1cccs1	2%	-1%
C[C@H]1[C@H](C)CC[C@]2(C(=O)O)CC[C@]3(C)C(=CC[C@@H]4[C@@]5(C)CC[C@H](O)C(C)(C)[C@@H]5CC[C@]43C)[C@H]12	6%	-2%
Cc1nc(C)c(-c2csc(Nc3ccc(O)c(C(=O)O)c3)n2)s1	1%	3%
CC(C)CNC(=O)COC(=O)CCC(=O)c1ccc(F)cc1	-2%	2%
CCn1cc(C(=O)N2CCN(c3ccccn3)CC2)c2cc(OC)c(OC)cc2c1=O	-4%	2%
Cc1cccc2cc(C(c3nnnn3CC3CCCO3)N3CCc4ccccc4C3)c(=O)[nH]c12 (centres undefined)	u	10%
Cc1ccc(F)c(C2C3C=CCC(c4cccc(-c5ccc(N(C)C)cc5)c4)C3C(=O)N2Cc2ccccc2)c1 (centres undefined)	14%	-4%
Cc1ccc(Cl)cc1N1CCN(C(=O)c2cnn(-c3ccc(Cl)cc3)c2C2CCNCC2)CC1	-7%	x
Cc1nn(CC(=O)N2CCc3ccccc3C2)c(C)c1[N+](=O)[O-]	-10%	-7%
COc1ccc(NC(=O)C2CCCN(S(=O)(=O)c3cccnc3)C2)c(OC)c1 (centres undefined)	0%	3%
Fc1ccc([C@H]2CCNCC2COc2ccc3c(c2)OCO3)cc1 (some centres undefined)	x	-8%

(list continues)
SMILES	FEN1 inhibitor	N370S GC
O=C(COc1ccc([N+](=O)[O-])cc1)N(C1CCCCC1)C1CCS(=O)(=O)C1 (centres undefined)	6%	0%
NCCN1CCN2C(=O)CN(C(=O)c3ccccc3)CC12 (centres undefined)	29%	x
CC(O)[C@H]1CNCCN1CCc1cccc(F)c1 (some centres undefined)	17%	-7%
COc1ccc(CC(NC(C)=O)C(=O)NC2CCN(c3nnnn3-c3ccccc3)CC2)cc1 (centres undefined)	25%	-2%
Cc1ccc(OCCC(=O)OCC(=O)NNC(=O)c2ccccc2)cc1	4%	-10%
COc1ccc(OC)c(-n2c(=S)[nH]c3cc(C(=O)N4CCN(c5ccccc5)CC4)ccc3c2=O)c1	1%	-3%
Cc1cc(C(=O)NC2CCCc3c2cnn3-c2ccc(C)c(C)c2)n(C)n1 (centres undefined)	7%	-1%
O=C(Nc1nnc(-c2ccccc2SCc2ccccc2F)s1)Nc1ccccc1F	-1%	-11%
CC1CCCN(Cc2c(O)ccc3c(=O)c(-c4nc5ccccc5s4)c(N)oc23)C1 (centres undefined)	-22%	u
O=C(CCCN1C(=O)CCC1=O)Nc1ccc2c(c1)OCCO2	-8%	2%
Cc1cccc(NC(=O)C2CCCN(C(=O)Nc3ccc(F)cc3)C2)c1 (centres undefined)	-2%	-1%
COC(=O)c1ccc(N)cc1O	0%	-12%
CCCC(c1nnnn1Cc1ccccc1)N1CCC(C(N)=O)CC1 (centres undefined)	0%	-2%
CCOC(=O)c1sc(/N=C/Nc2nc(C)c(C(=O)OCC)s2)nc1C	10%	13%
CC(=O)OCCCNc1cc(Sc2nc3ccccc3s2)c2nonc2c1[N+](=O)[O-]	-20%	3%
CCOC(=O)N1CC=C2C(C#N)=C(N)C(C#N)(C#N)[C@H](c3cccs3)C2C1 (some centres undefined)	7%	0%
CSc1ncccc1C(=O)OCC(=O)c1ccc(Br)s1	17%	18%
CCCOc1ccc(NC(=O)C2CC(=O)N(C)C(=Nc3cccc(OC)c3)S2)cc1 (centres undefined)	-4%	-15%
Cc1cccc(NC(=O)COc2ccc(Br)cc2C)n1	-5%	9%
CC1CCCN(S(=O)(=O)c2ccc(N(C(=O)c3cnccn3)C(C(=O)NC3CCCCC3)c3cccs3)cc2)C1 (centres undefined)	1%	-6%
CCOc1cc(/C=N/Nc2ccc(C(=O)O)cc2)ccc1OC(=O)c1ccccc1C	-15%	4%
Cc1ccc(NC(=O)C(c2ccccc2)N2CCN(CC(=O)NC3CC3)CC2)cc1 (centres undefined)	1%	x
CCS(=O)(=O)Nc1cccc(C2=NN(S(=O)(=O)CC)C(c3ccccc3)C2)c1 (centres undefined)	-2%	-6%
C=CCn1c(N2CCCC2)nc2c1c(=O)n(C)c(=O)n2C	3%	-4%
CC(C)N(Cc1ccccc1)C(=O)COC(=O)CCC(=O)c1ccc(F)cc1	-12%	x
COc1ccc(Cn2c(=S)[nH]c3ccsc3c2=O)cc1	6%	10%
O=C(CC1CCCCC1)NC1CCCC1	4%	-9%
CCOC(=O)c1c(CSC(=N)N)n(-c2ccc(C)cc2)c2cc(Br)c(OC(C)=O)cc12	u	-6%
Cc1ccc(OCc2nnc(SCC(=O)Nc3ccc(N4CCOCC4)cc3)o2)cc1	6%	-9%
CCN(CC)C(=O)N1CCN(S(=O)(=O)c2c(C)cc(C)cc2C)CC1	13%	11%
Cc1ccc(CSc2nc3cccnc3n2Cc2ccc(C(=O)NC3CCCCC3)cc2)cc1	-3%	x
CCc1ccccc1NC(=O)COc1cccc2ccc(C)nc12	-1%	23%
Cc1ccccc1OCC(=O)Nc1nnc(S(=O)(=O)N2CCCC2)s1	-2%&19%	-8%
COc1ccc(C(=O)NCCCc2nc3ccccc3n2Cc2ccccc2C)cc1OC	1%	-29%
CCN(C1CCS(=O)(=O)C1)S(=O)(=O)c1cccs1 (centres undefined)	-4%	-23%
Cc1cccc(OCC(=O)N(C)CC(=O)Nc2cccc(F)c2)c1C	-2%	x
Cn1c(C(=O)NC2CCCC2)cc2c(=O)n(C)c3ccccc3c21	4%	16%
OCC1(Cc2ccc(Cl)cc2)CCN(Cc2ccc3nsnc3c2)CC1	-20%	-3%
N#CCN1CCN(CC(=O)Nc2ccc(OCc3ccccc3)cc2)CC1	-3%	-3%
Cc1nc(CS(=O)(=O)c2ccccn2)sc1C(=O)NNC(=O)c1ccccc1	7%	6%
CNC(=S)N(Cc1ccccc1)Cc1cccnc1	5%	-25%
CCC(=O)n1nc(-c2ccco2)nc1SCc1ccccc1	-14%	-4%
O=C(CCl)Nc1ccccc1C(=O)c1ccccc1	13%	0%
O=C1OC(Nc2cc(Br)cc3cccnc23)c2ccccc21 (centres undefined)	1%	-2%

Compound activity from PubChem.

A portion of the library; most or all hits stand in other tables.
